Source: PubChem
CBX7 AlphaScr: blocks human CBX7 binding to H3K27me3 peptide. O95931. AlphaScreen His6-CBX7 / biotin-H3K27me3 peptide binding; hits give low values. normalised signal (fraction of DMSO) (no concentration beside the values). 66,000 tested, 1.1% active. AID 1224903; in the data active = normalised signal below about 0.5;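 also: 100 nL library stock added to about 20 µL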
Target sequence (O95931 whole entry, looked up): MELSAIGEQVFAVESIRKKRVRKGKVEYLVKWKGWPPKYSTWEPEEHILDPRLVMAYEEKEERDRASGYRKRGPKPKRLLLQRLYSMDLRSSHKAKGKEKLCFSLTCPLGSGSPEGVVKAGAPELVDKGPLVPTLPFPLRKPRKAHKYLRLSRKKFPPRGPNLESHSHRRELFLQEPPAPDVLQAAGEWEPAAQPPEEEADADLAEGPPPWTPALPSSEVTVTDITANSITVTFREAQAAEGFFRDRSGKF
CBX7 AlphaScr z-score: recorded beside CBX7 AlphaScr, whose call it bears; z-score; measured here: z-score of CBX7 signal; some inactives read as strong as hits; reference of the scale not given here;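 same signal on another scale; lower means less binding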
Numbers without * were called inactive; & = joins results of further samples. This is a subset, so the mix of outcomes need not match the whole.

SMILES	CBX7 AlphaScr	CBX7 AlphaScr z-score
COc1ccc(NC(=O)C2CCCN(C(=O)c3cnn(-c4ccccc4)c3-n3cccc3)C2)cc1 (stereo not drawn)	1.1	1.1
CCCCOc1ccc(N2C(=O)CC(N3CCN(c4ccc(F)cc4)CC3)C2=O)cc1 (stereo not drawn)	1.1	2.8
COc1ccccc1Cn1nnc2c(=O)[nH]c(C(=O)NCc3ccc(F)cc3)nc21	1.1	3
Cc1nc2cc(-c3ccc(Cl)cc3)nn2c(C)c1CCC(=O)NCCC1=CCCCC1	1.1	1.8
Cc1ccc(S(=O)(=O)N2CCCC2C(=O)NCCc2nc3ccccc3[nH]2)cc1 (stereo not drawn)	0.86	-1.6
O=C(NC(c1ccccc1)c1c(O)ccc2ccccc12)c1ccccc1Cl (stereo not drawn)	0.94	-0.58
COc1ccc(OC)c2[nH]c(=O)c(CCNC(=O)c3ccccc3)cc12	1.1	2.6
O=C(Nc1cccc(NC(=O)c2ccccc2F)c1)c1ccccc1	1.1	2.1
Cc1ccc(NC(=O)c2sc3ncn(CC(=O)N4CC(C)CC(C)C4)c(=O)c3c2C)cc1F (stereo not drawn)	1	0.18
CCCN(C(=O)c1cc2c(s1)-c1ccccc1OC2)c1cccc(Cl)c1	1.7	34
Cc1cc2nc(Cc3cccc(Cl)c3)c(=O)[nH]c2cc1C	1.1	1.4
COc1ccc(-c2nc(SCC(=O)Nc3ccc4c(c3)OCCO4)c(-c3ccc(F)cc3)[nH]2)cc1OC	0.82	-0.74
CCC(CO)NCC(O)Cn1c(C)c(C)c2ccccc21 (stereo not drawn)	0.73	-2.9
Cc1nc2c(C(=O)O)cnn2c(C)c1Cc1ccccc1Br	1	0.061
Cc1ccc(C)c(CSc2nc3ccncc3n2CC(=O)Nc2ccc(C)c(F)c2)c1	0.96	-1.7
CCc1cc(-c2oncc2-c2ccc(Br)cc2)c(O)cc1OC	0.85	-0.64
COc1ccc(NC(=O)c2cc(-c3ccccc3)nc3ccccc23)cc1	1.1	1.4
COC(=O)C(NC(=O)CCc1c(C)nc2cc(-c3ccccc3)nn2c1C)C(C)C (stereo not drawn)	1	-0.00062
COc1ccc(-n2nnc3c(=O)n(CC(=O)N4CCCC4)cnc32)cc1	0.96	-0.86
CCOC(=O)c1cnc2c(C)cc(Cl)cc2c1Nc1ccccc1OC	1.1	0.33
CCOc1ccccc1NC(=O)CCc1c(C)nc2cc(-c3ccccc3OC)nn2c1C	1	1.8
COc1cccc(CNC(=O)C2CCN(S(=O)(=O)c3cccs3)CC2)c1	0.97	-0.65
CC(C)CC1Nc2ccc(C(=O)N3CCN(c4ccccn4)CC3)cc2NC1=O (stereo not drawn)	1.1	0.086
CCOC(=O)c1c(CN2CCC(C)CC2)n(-c2ccccc2)c2cc(Br)c(O)cc12	0.75	-9.7
COc1ccc(CNC(=O)CCn2c(=O)[nH]c3ccccc3c2=O)cc1	1.1	0.26
O=C(Nc1cccnc1Cl)C1CSC(c2ccncc2)=N1 (stereo not drawn)	1	1.2
COC(CNC(=O)c1cc(Nc2cc(C)ccc2C)nc2ccccc12)OC	0.97	-0.82
Cc1cc(C)nc(N=C(N)Nc2ccc(OCc3ccc(Cl)cc3)cc2)n1	0.84	-1.7
CCOc1ccccc1NC(=O)CSc1nccn1-c1ccc(Cl)cc1	0.31*	-2.4*
CCOC(=O)N1CCC(N2Cc3cccc(C(=O)NCc4ccccc4OC)c3C2=O)CC1	1	0.65
Cc1ccc(-c2nc(Nc3c(F)cccc3F)c3ccccc3n2)cc1	0.99	-0.43
FC(F)(F)c1cc(-c2cccs2)nc(N2CCN(C(c3ccccc3)c3ccccc3)CC2)n1	1.2	1.6
Cc1ccc(NC(=O)CN(C)S(=O)(=O)c2ccc3c(c2)n(C)c(=O)c(=O)n3C)cc1F	1.1	0.61
Cc1[nH]c2ccccc2c1CCNC(=O)c1ccccc1OC(C)C	1.1	0.81
COc1ccc(Cn2cc(S(=O)(=O)c3ccccc3)c(=O)c3cc(OC)ccc32)cc1	1	0.96
Cc1ccc(-c2nc(CSCC(=O)Nc3cccnc3Cl)c(C)o2)cc1	1	0.16
CC1(C)Cc2c(C#N)c(OCC(=O)c3ccccc3)nc(-c3ccco3)c2CO1	1	0.36
Cc1ccc(CNC(=O)CCc2c(C)nc3cc(-c4cccc(F)c4)nn3c2C)cc1	1.1	0.65
COc1ccccc1Nc1nc(-c2ccc(Cl)cc2)c2ccccc2n1	2.1	18
CCCCCc1ccc(-c2nc(Cc3ccccc3)no2)cc1	1.4	3.7
CC1CC(C)CN(C(=O)CC(C(=O)N2CCc3ccccc32)n2ccnc2)C1 (stereo not drawn)	0.98	-0.65
Cn1c(C(=O)N2CCCCCC2)cc2sc(Cl)cc21	0.99	-0.5
CC(C)(c1ccccc1)c1ccc(OCC(=O)Nc2ncn[nH]2)cc1	0.9	-2.3
O=C1CSc2ccc(C(=O)NCCc3ccccc3)cc2N1	1.1	1.6
N#Cc1nc(-c2ccccc2F)oc1NCc1ccccc1	0.92	-0.85

Filtered by structure, those above containing an aryl thioether with sulfur outside any ring
SMILES	CBX7 AlphaScr	CBX7 AlphaScr z-score
COc1ccc(-c2nc(SCC(=O)Nc3ccc4c(c3)OCCO4)c(-c3ccc(F)cc3)[nH]2)cc1OC	0.82	-0.74
Cc1ccc(C)c(CSc2nc3ccncc3n2CC(=O)Nc2ccc(C)c(F)c2)c1	0.96	-1.7
CCOc1ccccc1NC(=O)CSc1nccn1-c1ccc(Cl)cc1	0.31*	-2.4*

The list goes on.
SMILES	CBX7 AlphaScr	CBX7 AlphaScr z-score
CC(=O)Nc1ccc(S(=O)(=O)NCc2ccc(C(=O)NCCc3ccc(C)cc3)cc2)cc1	1.4	1.8
CC(C)CCNC(=O)c1c[nH]c2ccc(S(=O)(=O)N3CC(C)CC(C)C3)cc2c1=O (stereo not drawn)	1.1	1.8
COc1ccc(C2C(C(C)=O)=C(O)C(=O)N2CCCn2ccnc2)cc1 (stereo not drawn)	0.82	-2.8
Cc1ccc2c(c1)C(c1ccc(F)cc1)N(C(=O)c1cccc(Cl)c1)CC(=O)N2 (stereo not drawn)	1.2	1.7
COc1ccccc1Nc1nc(-c2ccc(Cl)cc2)cs1	0.89&0.92	-2.1&-3
CCc1ccccc1N(C)C(=O)c1cn(CC(C)C)c(=O)c2cc(OC)c(OC)cc12	0.97	-0.26
O=C(Nc1ccc(Cl)cn1)Nc1cccs1	1	-0.16
O=C(NCCCN1CCN(c2ccccc2F)CC1)C1CCN(S(=O)(=O)c2cnc[nH]2)CC1	0.77	-2.8
O=C(NC1CCCCC1)C1CC(c2ccc(F)cc2)=NO1 (stereo not drawn)	1	0.59
Cc1oc(-c2cccc(Cl)c2)nc1CN1CCCC(C(=O)NC2CCCCC2)C1 (stereo not drawn)	1	0.29
CC1=Nc2cc(C(=O)NC3CCCC3)ccc2Sc2ccccc21	0.7	-0.3
O=C(CCN1C(=O)COc2ccccc21)NCc1ccc2c(c1)OCO2	1.1	3.8
Cc1cc(N2CCOCC2)nc2ccc(NC(=O)COc3ccc(Cl)cc3Cl)cc12	1	1.2
CCCCN(C)CCCNC(=O)Cn1nc(-c2ccccc2)ccc1=O	1	0.68
COc1ccc(C2Nc3ccc4ncccc4c3C3=C2C(=O)CC(C)(C)C3)c(OC)c1 (stereo not drawn)	1.1	1.5
COCC(C)NC(=O)c1cc(-c2cccc(Cl)c2)on1 (stereo not drawn)	1.1	1.5
COC(CNC(=O)Cn1ncc2ccsc2c1=O)OC	1.1	0.73
CCN1CCN(c2ccc(Nc3nc(C)nc4cc(Cl)ccc34)cc2)CC1	0.98	-0.48
O=C(Cc1c(C(=O)O)[nH]c2ccc(Cl)cc12)Nc1ccc(F)cc1Cl	1.1	1.6
COc1ccccc1CNC(=O)CCc1c(C)nc2cc(-c3ccc(Cl)cc3)nn2c1C	1.1	1.1
CCC(C)NC(=O)C1(C)CCC(=O)N1Cc1ccc2c(c1)OCO2 (stereo not drawn)	1.1	2.1
O=C(Nc1ccccc1-c1nc2ccccc2[nH]1)c1ccc(-c2ccccc2)cc1	0.98	-0.67
Cc1nc(NCCCN2CCOCC2)c2cc(-c3ccccc3)sc2n1	0.67	-6.3
CC1(C(=O)NC2CCCCCC2)CCC(=O)N1Cc1ccccc1Cl (stereo not drawn)	0.96	-1.3
Cc1sc2ncn(CC(=O)NCC(=O)NCC3CCCO3)c(=O)c2c1C (stereo not drawn)	1.1	1.3
COc1ccc(-c2csc(Nc3cccc(C(=O)O)c3)n2)cc1OC	0.83	-3.3
COc1ccc(CNC(=O)C2CC(=O)N(c3ccc(OCc4ccc(Cl)cc4)cc3)C2)cc1 (stereo not drawn)	0.91	-1.7
CCC(=O)NCCCc1nc2ccccc2n1Cc1c(F)cccc1Cl	0.99	-0.11
CCC1Oc2ccc(Cl)cc2N(CC(=O)N(C)Cc2ccccc2)C1=O (stereo not drawn)	0.73	-4.7
Cc1ccc(S(=O)(=O)C2(C(=O)Nc3ccc(C)c(Cl)c3)CC2)cc1	1.1	3.3
CC1=Nc2cc(C(=O)NCCCN(C)c3ccccc3)ccc2Sc2c(C)ccc(C)c21	0.85	-2.3
CCOC(=O)C1CCN(C(=O)Cn2nc(Cc3ccncc3)c3ccccc3c2=O)CC1	0.99	-0.31
Cc1ccc(NC(=O)C2CCN(c3nnc(-n4cccc4)s3)CC2)c(C)c1	1.1	2.2
Cc1ccc(-n2cc3c(c2-c2ccccc2)c(=O)n(C)c(=O)n3C)c(C)c1	0.85	-1.7
CCOc1ccc(CCNC(=O)C2CC(=O)N(CCc3ccccc3)C2)cc1OCC (stereo not drawn)	0.95	-1.3
COc1ccc2cc(CCNS(=O)(=O)c3c(C)cc(C)cc3C)c(=O)[nH]c2c1	1.1	1.3
O=C(NCCc1ccc(Cl)cc1)c1cccc(NC2=NC3CS(=O)(=O)CC3S2)c1 (stereo not drawn)	0.9	-1.1
COc1ccc(-c2noc(CCC(=O)NCCc3cccc(C)c3)n2)cc1	0.79	-3.3
Cc1cc(N2CCC(C(=O)N3CCCCC3C)CC2)n2nc(C)c(-c3ccc(Cl)cc3)c2n1 (stereo not drawn)	1.1	0.21
Cc1cc(N2CCC(C(=O)N(C)Cc3ccccc3)CC2)n2nc(C)c(-c3ccc(Cl)cc3)c2n1	1.3	5.1
Cc1ccccc1NC(=O)Cc1c(C(=O)O)[nH]c2ccc(Cl)cc12	1	0.041
CC(=O)N1CCc2cc(S(=O)(=O)NC3CCCCCC3)ccc21	1.2	2
O=C(NC(c1ccccc1)c1ccccc1)C(c1ccccc1)N1CCOCC1 (stereo not drawn)	0.97	-0.77
C=CCN(CC=C)C(=O)c1cc2c(n(-c3ccccc3)c1=O)CC(C)(C)CC2=O	0.9	-1.1
Brc1cccc(CNCc2ccc3c(c2)OCO3)c1	0.99	-0.18

As entered above:
`CCOC(=O)C1CCN(C(=O)Cn2nc(Cc3ccncc3)c3ccccc3c2=O)CC1` in CBX7 AlphaScr → 0.99
`COc1ccc(-c2noc(CCC(=O)NCCc3cccc(C)c3)n2)cc1` in CBX7 AlphaScr → 0.79
`O=C(NC(c1ccccc1)c1ccccc1)C(c1ccccc1)N1CCOCC1` (stereo not drawn) in CBX7 AlphaScr → 0.97

Next section.
SMILES	CBX7 AlphaScr	CBX7 AlphaScr z-score
Cc1noc(C)c1S(=O)(=O)NCc1ccccc1	1	0.88
CCN(CC)C(=O)c1c(-c2ccccc2Cl)noc1C	1	0.57
Cc1cc(N2CCCCC2)nc2ccc(NC(=O)Cc3cccs3)cc12	0.82	-3.2
CCOCCCNC(=O)c1ccc2c(c1)nc(C)n2-c1cc(OC)c(OC)c(OC)c1	0.99	-0.52
CCCc1ncc(C(O)(c2ccccc2)c2ccccc2)n1C	0.95	-1.5
CC1(C(=O)NC2CCCCCCC2)CCC(=O)N1Cc1ccccc1 (stereo not drawn)	1	-0.0072
Cc1ccc(C)c(NC(=O)Cn2cc(S(=O)(=O)c3ccc(Cl)cc3)c(=O)c3cc(C)ccc32)c1	1	0.21
COc1ccc(C(=O)Nc2cccc(Oc3ccc4c(c3)C(=O)N(c3ccc(OC)cc3)C4=O)c2)cc1	0.85	-5.3
O=C(NC12CCC(O)C(SC1)C2=O)c1ccccc1 (stereo not drawn)	0.85	-2.3
COc1ccc(OC)c(NC(=O)CCc2c(C)nc3c(-c4ccc(F)cc4)c(C)nn3c2C)c1	1	0.68
CC(NC(=O)C1CCCN1S(=O)(=O)c1cccc2cccnc12)c1ccccc1 (stereo not drawn)	0.92	-2.7
COCCCNC(=O)C1CCCN(Cc2nc(-c3cccc(C)c3)oc2C)C1 (stereo not drawn)	0.97	-1.4
CC1CCCCC1NC1CC(=O)N(c2ccccc2)C1=O (stereo not drawn)	1	0.0041
Cc1ccc(NS(=O)(=O)c2ccc3c(c2)n(C)c(=O)c(=O)n3C)c(C)c1	1.1	0.76
CCOC(=O)c1cnc2c(Cl)cccc2c1Nc1ccccc1OCC	0.97	-0.28
COc1ccccc1OCc1nc2ccccc2n1Cc1ccccc1	1.1	0.69
Cc1oc(-c2ccc(Cl)cc2)nc1CN1CCC(C(=O)NC2CC2)CC1	0.97	-1

6 of these compounds in another layout.
The line under a structure holds: CBX7 AlphaScr	CBX7 AlphaScr z-score
COc1ccc(OC)c(NC(=O)CCc2c(C)nc3c(-c4ccc(F)cc4)c(C)nn3c2C)c1
→ 1	0.68
CC(NC(=O)C1CCCN1S(=O)(=O)c1cccc2cccnc12)c1ccccc1 (stereo not drawn)
→ 0.92	-2.7
COCCCNC(=O)C1CCCN(Cc2nc(-c3cccc(C)c3)oc2C)C1 (stereo not drawn)
→ 0.97	-1.4
CC1CCCCC1NC1CC(=O)N(c2ccccc2)C1=O (stereo not drawn)
→ 1	0.0041
Cc1ccc(NS(=O)(=O)c2ccc3c(c2)n(C)c(=O)c(=O)n3C)c(C)c1
→ 1.1	0.76
CCOC(=O)c1cnc2c(Cl)cccc2c1Nc1ccccc1OCC
→ 0.97	-0.28
